Compound activity: PubChem, Johns Hopkins Ion Channel Center
KCNQ2 block = KCNQ2 channel blockers in CHO-K1 cells – cell-based, FluxOR thallium flux, B-score, primary screen (AID 2156) | 20 min; hits give low values; only compounds with negative scores are shown here; some inactives read as strong as hits | B-score at 10 µM | 1.1% of 310,000 active;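 active = fluorescence ratio B-score at most minus 3 library SDs, with starting brightness B-score within 2 library SDs, cut at about -5.5 in these data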
KCNQ2 block baseline = further read-out of KCNQ2 block, marked with its call; B-score; measured here: initial fluorescence intensity artifact check;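 brightness before thallium and not channel activity; 0 = typical well and far values either way flag optical interference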
* marks the source's active call; other numbers are inactive results; i = inactive. These rows are one share of the data; count on the stated rates, not on these rows.

mol | KCNQ2 block | KCNQ2 block baseline
CC(C)(C(=O)c1cccnc1)c1cccnc1 | i | 1.8
CCCc1cc(C(N)=S)ccn1 | i | 0.54
COc1c(O)cc2c(c1O)[C@@H]1O[C@H](CO)[C@@H](O)[C@H](O)[C@H]1OC2=O | i | -0.05
C/C=C(/C)C(=O)O[C@@H]1c2cc3c(c4c2[C@@]2(CO4)C(=O)C(OC)=C(OC)C=C2C[C@@H](C)[C@H]1C)OCO3 | i | 1.8
COc1cc(C(=O)NCCCCCC(=O)O)cc(OC)c1OC | i | 4.7
CCOC(=O)Nc1ccc2c(c1)N(C(=O)CCN1CCOCC1)c1ccccc1S2 | i | 0.64
COc1cc(C)nc(-n2nc(C)cc2OC)n1 | i | -2
COc1cc2c(c(OC)c1OC)-c1c(cc(OC)c(OC)c1OC)C[C@H](C)[C@H](C)C2 | i | 0.03
O=C(c1ccccc1)c1ccc2n1CCC2C(=O)O (centres undefined) | i | -0.7
Nc1ncnc(Nc2ccccc2)n1 | i | 1.7
O=C(O)CCCCCCCC(=O)O | i | 0.7
CN1CCN(c2c(F)cc3c(=O)c(C(=O)O)cn4c3c2SCC4)CC1 | i | -1.4
CN(C)CCC[C@@]1(c2ccc(F)cc2)OCc2cc(C#N)ccc21 | i | 0.17
COc1ccc(S(=O)(=O)Nc2nnc(CC(C)C)s2)cc1 | i | 0.26

In the list so far, these have a COOH group.
mol | KCNQ2 block | KCNQ2 block baseline
COc1cc(C(=O)NCCCCCC(=O)O)cc(OC)c1OC | i | 4.7
O=C(c1ccccc1)c1ccc2n1CCC2C(=O)O (centres undefined) | i | -0.7
O=C(O)CCCCCCCC(=O)O | i | 0.7
CN1CCN(c2c(F)cc3c(=O)c(C(=O)O)cn4c3c2SCC4)CC1 | i | -1.4

Another view of part of the listing above.
O=C(O)CCCCCCCC(=O)O
  KCNQ2 block = i	KCNQ2 block baseline = 0.7

CN1CCN(c2c(F)cc3c(=O)c(C(=O)O)cn4c3c2SCC4)CC1
  KCNQ2 block = i	KCNQ2 block baseline = -1.4
